Assay outcomes: PubChem, several laboratories
FGF22 binding = binders of human FGF22 protein, primary screen, FGF22 synaptogenesis inhibitor project, biophysical, thermal shift, single point | Fibroblast growth factor 22 (Homo sapiens), Q9HCT0 | recombinant FGF22 thermal shift, SYPRO orange fluorescence; percent of sucrose octasulfate shift, DMSO zero | calls only at 9.99 µM | 340,000 tested, 1.5% active | AID 651658, 2012;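 active means melting point raised past a set limit in the mean and every replicate; three in four hits are not shown here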
Target sequence (Q9HCT0 whole entry, looked up): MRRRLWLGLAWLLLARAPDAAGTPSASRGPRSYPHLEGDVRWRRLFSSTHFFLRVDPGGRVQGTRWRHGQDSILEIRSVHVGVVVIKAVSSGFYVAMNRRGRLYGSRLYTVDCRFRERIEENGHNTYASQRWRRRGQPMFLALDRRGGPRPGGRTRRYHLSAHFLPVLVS
ALR inh = inhibitors of human ALR sulfhydryl oxidase, primary screen, biochemical, H2O2 detection, HRP-luminol luminescence, single point | FAD-linked sulfhydryl oxidase ALR (Homo sapiens), P55789 | purified ALR, DTT oxidation | inhibition, % (test concentration not listed) | 290,000 tested, 3.8% active | AID 485317, 2010;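 active means mean and each replicate at 75% or more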;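 further: stock transfer was 7.5 nL into about 7.5 µL; 0% = neutral wells and 100% = wells with inactivated enzyme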
Ecoli rRNA inh = reduced GFP signal of wild-type E. coli, primary screen, bacterial rRNA inhibitor project, GFP/RFP fluorescence, OD600, single point. GFP signal change (wild-type ribosome), % (concentration not given with the values). E. coli WT GFP vs humanized-ribosome RFP mutants, 24 h; active compounds read low; DMSO median 0, no signal -100. AID 720706, 2013. 350,000 tested, 1.6% active;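 active means significant combined selectivity score with lowered wild-type GFP, culture density cut under 30%, mutant RFP and density less affected; inactive means any of these conditions unmet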; further: one replicate is shown; some compounds called inactive have numbers as strong as hits
UCH37 DUB inh = inhibitors of human UCH37 deubiquitinase, primary screen, biochemical, Ub-AMC cleavage, fluorescence; 330,000 tested, 0.33% active; AID 588478, 2011; purified proteasome/UCH37; Ubiquitin carboxyl-terminal hydrolase isozyme L5 (Homo sapiens), Q9Y5K5; inhibition, % (test concentration not listed);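 active means mean of two replicates above 20%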;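 further: 0% = compound-free wells with enzyme and 100% = wells lacking proteasome; stock transfer was 100 nL into about 20 µL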
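system = Proteasome-associated human UCH37 deubiquitinase | amount = 0.15 nM proteasome as dispensed | medium = pH 7.4 Tris-HCl (50 mM) with ovalbumin, ATP-MgCl2, DTT | incubation = 30 min preincubation with enzyme, 25 min cleavage at room temperature | detection = AMC fluorescence 355/460 nm | read-out basis = percent inhibition | controls = no-proteasome and no-compound wells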
Ecoli growth = E. coli growth inhibition, primary screen, OD600. Escherichia coli growth, 23 h; active compounds read low. OD600 absorbance (concentration not given with the values). 330,000 tested, 0.21% active;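 active means OD600 absorbance below the run mean of sample wells minus 3.6 SD, in any replicate, cut at about 0.56 in these data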;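 further: stock transfer was 300 nL into about 60 µL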
HNF4A DNA FP = change in binding of human HNF4A to DNA, primary screen, biochemical, fluorescence polarization, FITC-DNA. activity change, % at 10 µM. 360,000 tested, 0.3% active. Hepatocyte nuclear factor 4-alpha (Homo sapiens), P41235. AID 1224865, 2016. 1 h; in the data active means activity change above about 30%, passing the limit was not always enough;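 further: controls were the assay level and a saturating level of protein; the project sought stronger binding though the title names inhibitors; some compounds called inactive have numbers as strong as hits; positive values seem to mean higher polarization but the record does not say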
Target sequence (P41235 whole entry, looked up): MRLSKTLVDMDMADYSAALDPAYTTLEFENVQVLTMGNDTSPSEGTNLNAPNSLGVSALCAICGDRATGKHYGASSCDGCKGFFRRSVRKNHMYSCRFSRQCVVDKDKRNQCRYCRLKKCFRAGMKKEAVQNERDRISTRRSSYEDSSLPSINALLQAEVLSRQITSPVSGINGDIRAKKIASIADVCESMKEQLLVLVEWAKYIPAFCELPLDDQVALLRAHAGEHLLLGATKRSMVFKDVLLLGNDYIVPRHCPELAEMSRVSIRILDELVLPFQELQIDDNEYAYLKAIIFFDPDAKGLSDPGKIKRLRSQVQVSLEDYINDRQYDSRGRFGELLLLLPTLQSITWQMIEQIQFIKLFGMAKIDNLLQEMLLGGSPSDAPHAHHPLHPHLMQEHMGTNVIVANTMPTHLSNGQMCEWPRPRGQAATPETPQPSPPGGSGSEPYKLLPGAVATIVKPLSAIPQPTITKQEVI
Beta2AR agonist = beta2AR agonists driving receptor internalization, primary screen, cell-based, FAP fluorogen, flow cytometry; Beta-2 adrenergic receptor (Homo sapiens), P07550; Am2.2-beta2AR cells; reference of the scale not given here; response, % (test concentration not listed); 340,000 tested, 0.43% active; AID 504454, 2011;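 active means response above a set limit, near 3 SD of response in nonfluorescent compounds, cut at about 42% in these data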;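 further: stock transfer was 100 nL into about 11 µL; a reference agonist was the positive control; negative values mostly stem from fluorescent compounds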
Target sequence (P07550 whole entry, looked up): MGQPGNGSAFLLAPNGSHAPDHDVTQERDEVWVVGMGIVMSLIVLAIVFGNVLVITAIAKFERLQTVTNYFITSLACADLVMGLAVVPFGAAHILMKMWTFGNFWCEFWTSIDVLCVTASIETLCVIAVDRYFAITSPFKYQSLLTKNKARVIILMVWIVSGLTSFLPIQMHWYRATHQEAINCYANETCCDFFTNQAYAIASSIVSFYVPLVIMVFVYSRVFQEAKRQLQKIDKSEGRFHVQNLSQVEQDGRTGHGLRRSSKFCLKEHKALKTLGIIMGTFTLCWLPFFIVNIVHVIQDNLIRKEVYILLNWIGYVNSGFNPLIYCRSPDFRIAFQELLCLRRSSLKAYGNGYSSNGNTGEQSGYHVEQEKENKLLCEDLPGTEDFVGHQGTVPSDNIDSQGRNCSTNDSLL
Ecoli rRNA inh OD600 = also measured in Ecoli rRNA inh; calls as there; OD600 change, %; measured here: OD600 growth;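 optical density of the mix in the first replicate; 0 = DMSO median and -100 = no signal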
Ecoli rRNA inh RFP = also measured in Ecoli rRNA inh; calls as there; RFP signal change, %; measured here: RFP humanized mutant strains;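 first replicate; 0 = DMSO median and -100 = no signal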
Starred values were filed as active, the others as inactive; i = inactive; . = not tested or not shown. This is a subset; count on the stated rates, not on these rows.

The first 2 records (preview)
Every second line gives: FGF22 binding	ALR inh	Ecoli rRNA inh	Ecoli rRNA inh OD600	Ecoli rRNA inh RFP	UCH37 DUB inh	Ecoli growth	HNF4A DNA FP	Beta2AR agonist
- CC1(C(=O)NS(=O)(=O)c2ccc3c(c2)CCO3)CCN1C(=O)CCc1ccc(Cl)cc1Cl (stereo not drawn)
    i	.	-7	-8	-0.5	.	.	3.4	.
- NS(=O)(=O)c1ccc(CCN=Cc2ccccc2O)cc1
    .	-1	.	.	.	2.2	0.74	-0.8	1

The list itself, previewed entries included:
Every second line gives: FGF22 binding	ALR inh	Ecoli rRNA inh	Ecoli rRNA inh OD600	Ecoli rRNA inh RFP	UCH37 DUB inh	Ecoli growth	HNF4A DNA FP	Beta2AR agonist
- CC1(C(=O)NS(=O)(=O)c2ccc3c(c2)CCO3)CCN1C(=O)CCc1ccc(Cl)cc1Cl (stereo not drawn)
    i	.	-7	-8	-0.5	.	.	3.4	.
- NS(=O)(=O)c1ccc(CCN=Cc2ccccc2O)cc1
    .	-1	.	.	.	2.2	0.74	-0.8	1
- Cc1ccc(Nc2nc(N)c([N+](=O)[O-])c(NCc3ccccc3)n2)cc1
    i	.	6	1	2.2	3.0	0.7	-2.5	-2
- CCC1CCc2c(sc3ncnc(N4CCOCC4)c23)C1 (stereo not drawn)
    .	-1	.	.	.	-0.8	0.76	-1.9	-3
- Cc1ccc(Cl)cc1N1CCN(C(=S)NCCc2ccccc2)CC1
    i	-7	-19	-10	0.6	2.0	0.68	-0.7	-4
- O=C1NC[C@@H](Cc2cccc3ccccc23)N(CCC23CC4CC(CC(C4)C2)C3)C1=O
    .	4	.	.	.	2.0	.	5.3	-8
- CCc1nnc(NC(=O)c2ccc(OC)cc2)s1
    i	4	25	21	2.3	4.1	0.73	-4.1	1
- CCOC(=O)C1(CCC(=O)OCc2ccccc2)CCCCC1=O (stereo not drawn)
    i	.	5	-9	3.4	1.7	0.66	2.9	0
- Cc1ccc(CC(=O)OCC(=O)c2ccc[nH]2)cc1C
    i	-3	-3	-7	3.9	1.7	0.67	-4.5	-8
- Cc1cc(=O)oc2cc(OCC(=O)N3c4ccccc4NC(=O)C3(C)C)ccc12
    i	-1	-1	-7	2.4	-70	0.71	-4.0	1
- CC(=O)Nc1cc(-c2ccc(N3CCN(C)CC3)cc2)cn2c(-c3ccc(F)c(Cl)c3)cnc12
    i	.	-27	-39	-11	.	.	5.3	.
- Cc1cccc(CN(C)C[C@@H]2OCc3cnnn3CCCC(=O)N([C@H](C)CO)C[C@H]2C)c1
    i	.	1	-1	-0.1	.	.	-0.8	.
- CCOC(=O)/C=C1\SCC(=O)N1CC(=O)Nc1ccccc1OC(F)F
    .	-3	.	.	.	3.0	0.76	14	1
- CC1CC(C)CN(CC(O)COC2CC(C)CC(C)(C)C2)C1 (stereo not drawn)
    i	-2	-12	-25	2.8	7.3	0.63	0.8	4
- Cc1[nH]nc(N2CCCCCC2)c1[N+](=O)[O-]
    .	16	.	.	.	4.0	0.66	1.0	4
- O=C(NNC1CC(=O)N(c2ccccc2)C1=O)c1ccco1 (stereo not drawn)
    i	21	19	19	2.6	5.6	0.71	-6.9	0
- C=CCOc1ccc(Br)cc1/C=N/O
    .	-3	.	.	.	.	.	4.0	-11
- CC(=O)c1ccccc1C(=O)N1CCCC(C(=O)c2ccc(C(F)(F)F)cc2)C1 (stereo not drawn)
    i	12	0	1	-0.9	5.0	0.72	-1.6	-2
- CN(C)CCn1cnc2c1c(=O)n(C)c(=O)n2C
    i	-12	10	9	-0.2	2.9	0.72	5.3	11
- CC1=C(C(=O)Nc2ccccc2F)C(c2cccs2)NC(=S)N1 (stereo not drawn)
    i	-27	9	4	0.6	1.6	0.74	-2.0	-9
- CCn1c(=O)c(CCC(=O)NCCN2CCOCC2)c(C)c2c(C)nn(-c3ccccc3)c21
    i	-39	-6	0	-6.5	0.4	0.66	0.4	2
- Cc1ccccc1C1CCCN(C(=O)c2cc(COc3c(F)cccc3F)on2)C1 (stereo not drawn)
    i	1	-34	-32	-9.0	6.8	0.71	-1.5	7
- COc1ccc(NC(=O)C(F)(OC)C(F)(F)F)c(OC)c1 (stereo not drawn)
    .	-3	5	6	-0.4	3.4	0.69	0.7	-2
- CCOc1ccc(S(=O)(=O)Nc2ccccn2)c2ccccc12
    i	-22	8	1	-1.1	-73	0.68	-4.1	-4
- O=C(O)C1C2CCC(C2)C1C(=O)NCc1ccco1 (stereo not drawn)
    .	0	.	.	.	3.9	0.67	-2.2	12
- CC1(C)CC(=O)C=C(c2cccc(Cl)c2O)C1
    i	96*	4	-4	-13	1.0	0.63	1.7	-1
- Cc1ccc(OCCn2cnc3ccccc3c2=O)c([N+](=O)[O-])c1
    i	4	1	2	-5.5	2.6	0.71	1.9	-17
- COc1ccc(OCC(=O)OCC(=O)c2ccc(OC)c(F)c2)cc1
    i	3	-62	-69	-24	-1.6	0.69	0.9	-14
- COC(=O)c1ccc(NC(=O)CN2CCN(c3ccccc3C)CC2)cc1
    i	16	-27	-26	-1.3	4.8	0.66	3.6	-6
- N=C1C(c2nc(-c3ccc(Cl)cc3)cs2)=C(O)CN1CCCN1CCOCC1
    .	98*	.	.	.	2.9	0.73	1.5	2
- COCCCNC(=O)c1cc(S(=O)(=O)N2CCC3(CC2)OCCO3)ccc1F
    i	.	17	14	2.8	.	.	1.3	.
- Cn1nc(-c2ccccc2)c(/C=N/O)c1Cl
    i	2	14	-5	-3.2	.	.	1.1	3
- O=C(c1cccc(F)c1)N1CCN(Cc2cccc(Br)c2)CC1
    i	-3	-25	-22	-1.0	5.3	0.65	0.4	7
- CC1CC(C)CN(S(=O)(=O)N2CCCC(C(=O)NCCc3ccc(Cl)cc3)C2)C1 (stereo not drawn)
    i	1	0	0	0.9	4.4	0.71	0.7	-10
- CC1CCCCN1S(=O)(=O)c1ccccc1[N+](=O)[O-] (stereo not drawn)
    i	-3	-20	-29	-5.9	-0.7	0.71	-2.5	10
- Cc1ccc(C)c(NCCCCC(=O)O)c1
    i	.	1	6	-1.0	.	.	4.7	.
- CCOC(=O)c1ccccc1Oc1c(F)c(F)nc(NCCO)c1F
    .	0	.	.	.	1.3	0.68	0.3	3
- Cc1ccc(C)[n+](CC(=O)c2ccc(-c3ccccc3)cc2)c1
    i	7	7	6	-5.6	-1.8	0.66	1.4	7
- COc1ccc(NC(=O)CCC(=O)c2ccc(-c3ccccc3)cc2)cc1
    .	-9	.	.	.	5.6	0.72	15	0
- Cn1c(SCC(=O)c2ccccc2)nnc1-c1cccnc1
    .	70	.	.	.	4.0	0.7	-0.7	-7
- CN(C)CCCN(C(=O)c1ccco1)c1nc2ccc(F)cc2s1
    i	-17	0	-4	2.7	3.4	0.69	1.0	3
- COCc1nc2ccccc2n1Cc1ccccc1
    .	-4	.	.	.	6.0	0.7	-0.7	-3
- CCc1noc(C)c1C(=O)N(CC)CC(=O)NCc1ccc(Cl)cc1
    i	.	7	16	0.1	1.3	0.7	-1.1	-4
- NC(=NCCc1ccccc1)NS(=O)(=O)c1ccccc1
    .	-11	.	.	.	3.1	0.71	-1.9	6
- COc1cccc(N2CCN(CC(=O)Nc3nnc(-c4ccccc4)s3)CC2)c1
    .	-33	.	.	.	1.3	0.7	-3.2	-1
- COCCCNC(=O)C[C@@H]1C[C@@]2(C(=O)OC)CCCCC=C2N(Cc2ccc3c(c2)OCO3)C1=O
    i	.	4	9	3.9	.	.	-4.2	.
- Cc1cccc(OCCOC(=O)c2ccc(F)c(S(=O)(=O)N3CCOCC3)c2)c1
    i	0	.	.	.	-0.3	0.64	-3.8	0
- CCNC(=S)Nc1ccc(S(=O)(=O)Nc2cc(C)nc(C)n2)cc1
    i	1	8	-8	1.2	3.2	0.74	-2.1	-6
- Cc1ccc2[nH]c(=O)c(CN(CC3CCCO3)C(=O)c3cccs3)cc2c1 (stereo not drawn)
    i	.	-2	0	-2.2	-6.9	0.65	0.7	1
- CCOC(=O)C1CCN(C(=O)C2CCN(c3nn4c(=O)cc(C)nc4s3)CC2)CC1
    i	-4	10	7	0.1	1.6	0.61	2.3	-4
- CCOC(=O)c1ccc(NC(=O)NC2=NCCS2)cc1
    i	.	2	2	-2.0	.	.	-2.1	.
- COc1ccc(-c2cc(C)no2)cc1S(=O)(=O)N1CCOc2ccc(C)cc21
    i	0	8	12	-1.5	4.6	0.71	5.7	3
- O=C(CC1OC(=O)c2ccccc21)NNC(=O)c1ccc(F)cc1 (stereo not drawn)
    i	.	.	.	.	7.8	0.68	-0.9	-1
- CCOC(=O)C1=CN(Cc2cccc(F)c2)S(=O)(=O)N(CC)C1c1ccc2ccccc2c1 (stereo not drawn)
    .	.	-1	0	-0.3	2.6	0.71	-1.1	0
- CC(c1ccccc1)N1C(=O)C2C3C=CC(C4CC34)C2C1=O (stereo not drawn)
    i	-5	-3	-1	-1.4	4.2	0.68	-0.7	-11
- COc1cc(OC)cc(C(=O)OCC(=O)Nc2ccc(F)cc2F)c1
    i	-7	-3	14	-2.4	-0.8	0.7	-3.0	-3
- O=C(Nc1cccnc1Cl)C1c2ccccc2Oc2ccccc21
    .	6	.	.	.	-2.5	0.7	-0.2	2
- Cc1cc(C)cc(NC(=O)c2ccc(CNc3c(N4CCCC4)c(=O)c3=O)cc2)c1
    i	6	4	-2	-1.3	1.3	0.69	3.8	-4
- O=C(NC1CCN(C(=S)Nc2ccc(Cl)cc2)CC1)C1CCCCC1
    i	2	6	11	0.3	3.0	0.72	-3.3	7
- O=C(Nc1cccc(Cl)c1)c1cccnn1
    i	-10	2	1	-3.5	.	.	0.0	4

(cont.)
Every second line gives: FGF22 binding	ALR inh	Ecoli rRNA inh	Ecoli rRNA inh OD600	Ecoli rRNA inh RFP	UCH37 DUB inh	Ecoli growth	HNF4A DNA FP	Beta2AR agonist
- CCOCCCNC(=O)CN1C(=O)CSc2ccccc21
    i	-2	15	17	-1.0	3.6	0.69	0.3	5
- CCn1nc(C)cc1C(=O)N1CCCC(Nc2ccc(C(C)C)cc2)C1 (stereo not drawn)
    i	.	-10	-5	4.3	1.6	0.69	-1.3	3
- CCOc1ncccc1C(=O)Nc1ccc(S(=O)(=O)N2CCCC2)cc1
    i	-3	12	18	0.3	-1.9	0.7	1.2	1
- CCC(CO)Oc1cc(NC(=O)c2ccccc2F)c2ncn(C(C)C)c2c1 (stereo not drawn)
    i	2	-20*	-2.9*	0.1*	1.2	0.65	-0.1	-5
- COc1ccccc1N(CC(=O)NCCSCc1ccc(C)cc1)S(=O)(=O)c1ccccc1
    i	-27	-5	-6	-0.7	1.7	0.75	2.8	14
- CCCn1nnnc1SCC(=O)N1CCCC1
    .	-8	.	.	.	1.4	0.69	1.8	4
- CC(C)C(NC(=O)Nc1ccccc1)C(=O)Nc1cccc(S(=O)(=O)N(C)C)c1 (stereo not drawn)
    i	-8	-11	-8	6.6	8.5	0.68	3.6	-7
- CCn1ccc(C(=O)Nc2ccsc2C(=O)OC)n1
    i	3	0	-16	-2.2	2.5	0.66	3.0	3
